# VDR inhibitor – inhibitors of human vitamin D receptor. P11473. Potency, µM, for the others: max response, negative = inhibition, actives largely listed as inhibitors. VDR-SRC2-3 peptide fluorescence polarization, 2 h. 0.93% of 400,000 active; active means well fitted inhibition curve with a large enough effect; inconclusive means small, poorly fitted or top-dose-only effect, or another doubt; inactive means no such curve, though single readings can be large or run the other way; further: series mostly up to about 120 µM
# Target sequence (P11473 whole entry, looked up): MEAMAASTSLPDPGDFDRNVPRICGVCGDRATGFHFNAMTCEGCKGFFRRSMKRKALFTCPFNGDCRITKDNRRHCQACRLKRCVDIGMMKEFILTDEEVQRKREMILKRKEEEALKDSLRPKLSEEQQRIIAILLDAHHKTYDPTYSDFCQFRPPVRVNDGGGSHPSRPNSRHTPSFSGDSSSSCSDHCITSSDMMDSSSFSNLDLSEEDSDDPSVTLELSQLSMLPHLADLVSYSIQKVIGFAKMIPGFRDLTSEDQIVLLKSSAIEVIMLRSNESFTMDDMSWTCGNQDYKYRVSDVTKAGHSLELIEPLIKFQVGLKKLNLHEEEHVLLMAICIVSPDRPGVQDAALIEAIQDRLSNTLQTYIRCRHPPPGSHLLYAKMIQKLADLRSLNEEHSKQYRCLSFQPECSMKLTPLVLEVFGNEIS
#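 Signal is fluorescence polarization, reporting how far test compounds block the interaction of VDR with the SRC2-3 coregulator peptide after a 2 h room-temperature incubation.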
# Numbers without * were called inactive; ? = inconclusive; & = joins results of further samples. On the % scale 0 is the no-effect control and ±100 the full control effect; potency means the concentration at half of the fitted maximal effect. An excerpt; rates above refer to the full screens.
nr	structure	VDR inhibitor
1	COc1cc(/C=C2/SC(=Nc3ccc(O)cc3)NC2=O)cc(OC)c1O	10%
2	COc1ccc(C(=O)NCCc2nnc3ccc(SCC(=O)Nc4ccccc4)nn23)cc1	-19%
3	Cc1cc2c(c(=O)n1CCN(C)C)C(c1ccccc1Br)C(C#N)=C(N)O2 (centres undefined)	2%
4	Cc1ccc(CNc2ncnc3c2c(-c2ccccc2)cn3-c2ccccc2)cc1	17%
5	CCOC(=O)C1CCCN(C(=O)CNS(=O)(=O)c2ccc(Br)s2)C1 (centres undefined)	1%
6	COc1ccc(-c2nc(CS(=O)(=O)CC(=O)Nc3cccc(C(C)=O)c3)c(C)o2)cc1	2%
7	Cn1c(N)c(C(=O)COC(=O)c2ccco2)c(=O)n(C)c1=O	1%
8	CCOC(=O)C1(Cc2ccccc2)CCN(Cc2ccc3c(c2)OCCO3)CC1	6%
9	CCOC(=O)C(=O)Nc1cc(C(=O)OC)cc(C(=O)OC)c1	1%
10	Cc1cc2nc(-c3ccco3)cc(C(F)(F)F)n2n1	-14%
11	CCn1c2ccccc2c2cc(NC(=O)COC(=O)C3CCC(=O)N3)ccc21 (centres undefined)	-3%
12	O=c1cc(N2CCN(c3cccc(Cl)c3)CC2)[nH]c(=O)n1C1CCCCC1	0%
13	CCc1ccccc1NS(=O)(=O)c1ccc(-c2coc(C)n2)cc1	6%
14	COc1ccc(CCNC(=O)c2cnc3sc(N4CCC(C)CC4)nn3c2=O)cc1OC	10%
15	CCOCc1nnc(NC(=O)c2cccs2)s1	1%
16	CC(C)NC(=O)COC(=O)/C=C/c1ccco1	-7%
17	CC(C)c1ccc(NC(=O)Cn2cc(S(=O)(=O)Cc3ccccc3Cl)c3ccccc32)cc1	1%
18	Cc1ccc2cc(COC(=O)c3ccco3)c(=O)[nH]c2c1	12%
19	O=C(CCN1CCN(CCO)CC1)Nc1ccc(C2CCCC2)cc1	-17%
20	COc1ccc(-c2ccn(-c3cccc(F)n3)n2)cc1	-23%
21	CCN1C(=O)[C@H]2[C@@H](c3ccc(-c4ccc(Cl)c(Cl)c4)cc3)N[C@@](Cc3ccccc3)(C(=O)OC)[C@H]2C1=O	-4%
22	COCCNC(=O)c1ccccc1N(Cc1ccccc1)S(=O)(=O)c1ccc(C)cc1	-28%
23	O=C(COC(=O)c1cc(=O)[nH]c2ccccc12)Nc1ccc(F)cc1F	3%
24	COc1ccc(N2CCN(CCCNC(=O)C(=O)c3c(C)[nH]c4ccccc34)CC2)cc1	-14%
25	CCCN1C(=O)S/C(=C\c2ccc(N3CCOCC3)o2)C1=O	32µM*
26	CC[C@H](C)[C@H](NC(=O)[C@H](CCC(=O)O)NC(=O)[C@H](C)NC(=O)[C@@H](NC(=O)[C@H](Cc1cnc[nH]1)NC(=O)[C@@H](NC(=O)[C@H](CCC(=O)O)NC(=O)[C@H](C)NC(=O)[C@@H](NC(=O)[C@H](CC(C)C)NC(=O)[C@H](Cc1cnc[nH]1)NC(=O)[C@H](Cc1cnc[nH]1)NC(=O)[C@H](CC(C)C)NC(=O)[C@H](Cc1c[nH]c2ccccc12)NC(=O)[C@H](Cc1ccccc1)NC(=O)[C@H](CCCNC(=N)N)NC(=O)[C@H](CCCNC(=N)N)NC(=O)[C@H](CCCNC(=N)N)NC(=O)[C@H](CC(C)C)NC(=O)[C@H](CC(=O)O)NC(=O)[C@H](CCC(N)=O)NC(=O)[C@@H](NC(=O)[C@H](CO)NC(=O)[C@H](CCCCN)NC(=O)CNC(=O)[C@H](CCCCN)NC(=O)[C@H](CC(=O)O)NC(=O)[C@H](Cc1cnc[nH]1)NC(=O)[C@H](CC(C)C)NC(=O)[C@H](CC(C)C)NC(=O)[C@H](CCC(N)=O)NC(=O)[C@@H](NC(=O)[C@H](CCC(=O)O)NC(=O)[C@H](CO)NC(=O)[C@@H](NC(=O)[C@H](C)N)C(C)C)[C@@H](C)CC)[C@@H](C)CC)[C@@H](C)CC)[C@@H](C)CC)[C@@H](C)O)C(=O)O	2%
27	COCCn1c(=S)[nH]c2cc(C(=O)N3CCN(c4ccccc4OC)CC3)ccc2c1=O	4%
28	CCC(=O)Oc1ccc(NC(=O)CSCc2ccccc2)cc1	17%
29	N=C1/C(=C/c2cccs2)C(=O)N=C2SN=C(SCc3ccccc3)N12	12%
30	O=C(CN1CCN(C(=O)c2ccco2)CC1)Nc1ccccc1-c1ccccc1	-10%

# Single values from the list.
# Result for compound 2 in VDR inhibitor: -19%
# Result for compound 9 in VDR inhibitor: 1%
# Result for compound 29 in VDR inhibitor: 12%

# Other compounds follow.
nr	structure	VDR inhibitor
31	COc1ccc(C2=NC(C)(C)N(CC(=O)Nc3ccc(F)c(F)c3)C2=O)cc1	7%
32	COC(=O)c1[nH]c2ccccc2c1NC(=O)CCN1CCSCC1	-5%
33	COc1ccc(Nc2ncnc3c2cnn3Cc2ccccc2)cc1OC	-7%
34	O=C(Nc1cc(-c2nn(CC(=O)N3CCCCC3)c(=O)c3ccccc23)ccc1N1CCOCC1)c1ccc(Cl)cc1	?
35	CCn1c(C)nnc1SCC(=O)Nc1cccc(Cl)c1	-11%
36	CCc1ccc(S(=O)(=O)N(C(=O)Oc2ccccc2)c2ccc3oc(C)c(C(=O)OC)c3c2)cc1	-10%
37	COC(=O)COc1ccc(S(=O)(=O)Nc2ccc(C(N)=O)cc2)cc1Cl	-1%
38	Cc1nnc(Nc2ccc(C(=O)N3CCOCC3)cc2)c2ccccc12	7%
39	COc1cc(OC)cc(C(=O)N[C@H](C(=O)OCC(=O)Nc2ccc(F)c(F)c2)C(C)C)c1	-17%
40	O=C(c1sc2cc([N+](=O)[O-])ccc2c1Cl)N1CCOCC1	3%
41	CC1(C)CC(=O)c2sc(NC(=O)c3ccco3)nc2C1	-2%
42	O=C(Nc1ccc2c(c1)C(=O)N(CC1CCCO1)C2=O)c1cccc(Br)c1 (centres undefined)	4%
43	COc1ccc(C2CC(=O)CCN2S(=O)(=O)c2ccc(C)cc2)cc1 (centres undefined)	-14%
44	NNc1nnc(NN)c2ccccc12	-4%
45	Cc1ccc(S(=O)(=O)N2CCCN(S(=O)(=O)c3ccc4c(c3)OCCO4)CC2)cc1	14%&-9%

# Quoted at random: 6 compounds from above.
nr	structure	VDR inhibitor
33	COc1ccc(Nc2ncnc3c2cnn3Cc2ccccc2)cc1OC	-7%
32	COC(=O)c1[nH]c2ccccc2c1NC(=O)CCN1CCSCC1	-5%
31	COc1ccc(C2=NC(C)(C)N(CC(=O)Nc3ccc(F)c(F)c3)C2=O)cc1	7%
40	O=C(c1sc2cc([N+](=O)[O-])ccc2c1Cl)N1CCOCC1	3%
39	COc1cc(OC)cc(C(=O)N[C@H](C(=O)OCC(=O)Nc2ccc(F)c(F)c2)C(C)C)c1	-17%
36	CCc1ccc(S(=O)(=O)N(C(=O)Oc2ccccc2)c2ccc3oc(C)c(C(=O)OC)c3c2)cc1	-10%

# Next section
nr	structure	VDR inhibitor
46	COc1ccc(Cl)cc1NC(=O)CN(C)S(=O)(=O)c1ccc2c(c1)CCCN2C(C)=O	4%
47	Cc1ccccc1NC(=O)CCc1c(C)nc2c(c1C)c(=O)n(C)c(=O)n2C	-16%
48	CC(/C=C1\SC(=Nc2cccnc2)NC1=O)=C\c1ccccc1	-22%
49	COc1ccccc1S(=O)(=O)Cc1ccc(C(=O)N2CCN(c3ccc(C)cc3)C(C)C2)o1 (centres undefined)	-7%
50	CCOc1cc(CNCCSc2nnnn2C)cc(Cl)c1OCc1ccc(Cl)cc1	18%
51	COc1cc(/C=C/C(=O)O)cc(S(=O)(=O)N(CC(C)C)CC(C)C)c1OC	1%
52	Cc1ccccc1N(C)S(=O)(=O)c1nnc(NC(=O)C(C)C)s1	-1%
53	COc1c(Cl)cc(Cl)cc1CNCc1ccccc1	-3%
54	CCN(CC)C(=O)Cn1c(=O)n(-c2ccc(Cl)c(Cl)c2)c(=O)c2c(C)c(C(=O)N(CC)CC)sc21	3%
55	CC(C)CCN1C(=O)c2ccc(C(=O)NCc3ccccn3)cc2C1=O	-2%
56	CCC1CCC(c2nnc(-c3ccc(Br)cc3)o2)CC1 (centres undefined)	11%
57	CCCc1cnc(N2CCN(C(=O)c3ccccc3)CC2)nc1	8%
58	CCOC(=O)NC(CC(=O)O)c1ccc(OC)cc1 (centres undefined)	-10%
59	Cc1ccc(-c2noc(CC(=O)c3ccc([N+](=O)[O-])cc3)n2)cc1	-7%
60	COCCn1cnnc1SCC(=O)Nc1cccc(S(=O)(=O)N2CCCCCC2)c1	4%
61	Cc1ccc(C(=O)C2Oc3ccccc3C3CC(c4ccc(C)cc4)=NN23)cc1 (centres undefined)	-9%
62	CCOC(=O)c1sc(-c2ccc(F)cc2)cc1NC(=O)Nc1ccccc1OC	3%
63	Cc1ccc(C(=O)C[n+]2ccc(Cc3ccccc3)cc2)cc1	4%
64	O=C(CN1C(=O)CC(c2ccco2)Sc2ccccc21)NCC1CCCO1 (centres undefined)	-1%
65	CCc1ccc(OC(C)C(=O)N2CCC(c3nc4ccccc4s3)CC2)cc1 (centres undefined)	-1%
66	COc1cccc(CN2CCNC(=O)C2CC(=O)NCC(C)(C)N2CCOCC2)c1OC (centres undefined)	-4%
67	NC(=O)C1CCN(C(=O)c2ccc(NS(=O)(=O)c3ccc(F)cc3)cc2)CC1	6%
68	Cc1ccccc1COC(=O)CCCC1=NS(=O)(=O)c2ccccc2N1	-7%
69	COc1ccc(CCc2nnc(CCC(=O)NCc3cnn(-c4ccccc4C)c3)o2)cc1	?
70	Fc1ccc(CNCCCSc2nnnn2-c2ccccc2)cc1	18%
71	Cc1ccc(NC(=O)c2ncn(CCCNCCCN3CCCC3=O)n2)cc1C	-5%
72	CCN1CCN(C(=O)C(=O)c2cn(CC(=O)N(CC)CC)c3ccccc23)CC1	-13%
73	CC1CCN(C(=O)C2CCN(S(=O)(=O)c3ccc4c(c3)CC(C)N4C(=O)C3CC3)CC2)CC1 (centres undefined)	6%
74	CCCc1nnc(SCC(=O)N2CCOCC2)n1Cc1ccco1	-6%
75	COc1cccc(C=NC=Nc2cccc(OC)c2)c1	1%
76	C=CCn1c(SCC(=O)Nc2ccc3c(c2)OCO3)nnc1-c1ccccc1OC	-6%
77	CNc1nc(-c2ccccc2)c(-c2ccccc2)s1	-1%
78	COC(=O)c1c(C)[nH]c(O)c1C=Nc1ccc(C#N)cc1	-17%
79	COC(=O)c1ccc(CNC(=O)C(NC(=O)c2ccco2)C(C)C)cc1 (centres undefined)	-14%
80	COCCN1C=C2C(=O)C(C)(OC(=O)CCC(=O)OC)C(=O)C=C2C=C1C1CC1 (centres undefined)	-10%
81	CCN(C(=O)CCc1ccccc1)C1CCCCC1	-20%
82	CCCc1cc(=O)[nH]c(SCC(=O)Nc2ccc(S(=O)(=O)N3CCCC3)cc2)n1	0%
83	COCCSc1nc2c(c(=O)[nH]c(=O)n2C)n1Cc1cccc(C)c1	-9%
84	Cc1cccc(NC(=O)CS(=O)(=O)c2cn(CC(=O)N3CCOCC3)c3ccccc23)c1	2%
85	N#CC(C(=O)NC1CCCCC1)=C1CCCCCC1	-11%
86	CC(Oc1ccccc1)C(=O)Nc1ccc(NC(=O)c2ccccc2)cc1 (centres undefined)	-6%
87	CSc1ccc(/C=N/N2CCN(Cc3ccccc3)CC2)cc1	6%
88	Cc1cc(S(=O)(=O)NCc2ccccc2)ccc1OCC(=O)NCC1CCCO1 (centres undefined)	7%
89	CCOc1ccc(CNC(=O)CCC(=O)N2CC3CCCN3c3ccccc32)cc1 (centres undefined)	-4%
90	Cc1ccc(C(=O)OCC(=O)Nc2cc(F)ccc2F)cc1NC(=O)c1ccco1	-3%

# Next part, overlapping the part above by five compounds.
nr	structure	VDR inhibitor
86	CC(Oc1ccccc1)C(=O)Nc1ccc(NC(=O)c2ccccc2)cc1 (centres undefined)	-6%
87	CSc1ccc(/C=N/N2CCN(Cc3ccccc3)CC2)cc1	6%
88	Cc1cc(S(=O)(=O)NCc2ccccc2)ccc1OCC(=O)NCC1CCCO1 (centres undefined)	7%
89	CCOc1ccc(CNC(=O)CCC(=O)N2CC3CCCN3c3ccccc32)cc1 (centres undefined)	-4%
90	Cc1ccc(C(=O)OCC(=O)Nc2cc(F)ccc2F)cc1NC(=O)c1ccco1	-3%
91	N[C@H](C(=O)O)C1[C@H](C(=O)O)[C@H]1C(=O)O (some centres undefined)	6%
92	S=C(Nc1ccc(Cl)cc1)N(CCCN1CCOCC1)Cc1cccs1	-5%
93	Cc1cccc2sc(N(CCN(C)C)C(=O)c3ccc4ccccc4c3)nc12	-15%
94	Cc1cc(Br)ccc1SCC(=O)OC/C(O)=C(\C#N)c1nc2ccccc2[nH]1	-3%
95	CCO[C@@H]1OC(C(=O)NCc2ccccc2)=C[C@H](C(C)(C)C)[C@H]1CCCO	-18%
96	O=C(NC1CCCCC1)c1ccc(CN2CCOCC2)cc1	-14%
97	O=C(Nc1ccccc1Cl)c1ccccc1Cl	-22%
98	Cc1c(CCOC(=O)c2ccc(Cl)cc2Cl)sc[n+]1CC(=O)c1ccc(Br)cc1	-17%
99	Cc1ccc2c(c1)c(=O)c(Br)c(C)n2Cc1ccccc1	-6%
100	COc1ccc2[nH]c3c(=O)n(Cc4ccc(C(=O)N5CCC(C(N)=O)CC5)cc4)c(=S)[nH]c3c2c1	?
101	COc1cccc(-n2c(SCC(=O)NCC3CCCO3)nc3c([nH]c4ccccc43)c2=O)c1 (centres undefined)	-1%
102	O=C(Oc1c(-c2ccccc2)oc2ccccc2c1=O)c1ccccc1	20%
103	Cc1oc2c(cc(NS(=O)(=O)c3ccc(F)cc3)c3ccccc32)c1C(=O)O	-15%
104	CNC(=S)N(Cc1cc2cc(C)cc(C)c2[nH]c1=O)C1CCCC1	-4%
105	COC(=O)c1cc(Cl)c(N)cc1OC	-4%
106	CC(C)(C)OC(=O)N(CCc1ccccc1)Cc1ccccc1OCc1cccc(NC(=O)C2CCCC2)c1	-26%

# Bioassay records deposited in PubChem BioAssay by National Center for Advancing Translational Sciences (NCATS).
